Screens (PubChem)
A1 apoptosis 2 = A1 inhibition read as caspase activation; caspase activation, % (no concentration beside the values); AID 2465; MEF A1-2A-BIM cells, caspase-Glo luminescence, 3 h; percent of clofoctol response, DMSO zero; 24,000 tested, under 10 active; in the data active = caspase activation above about 5.9%;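 also: wells of about 30 µL received 50 nL stock; the first replicate is given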
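System: mouse embryonic fibroblasts co-expressing A1 and BIM (A1-2A-BIM), primed for A1 dependence; amount: 2500 cells/well; doses: 50 nL pinned compound; schedule: cells settled overnight, compound exposure 3 h at 37 °C, 5% CO2; detection: Caspase-Glo 3/7 luminescence, 1 h at room temperature; read-out: Caspase-3/7 activation, seen as rise in luminescence signal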
Starred values were filed as active, the others as inactive. A portion of the library, so the mix of outcomes need not match the whole.

SMILES	A1 apoptosis 2
C[C@@H]1CN([C@H](C)CO)C(=O)c2cc(NC(=O)Nc3ccc(F)cc3)ccc2O[C@@H](C)CCCCO[C@@H]1CN(C)C(=O)c1ccccc1	0.6
CCCCNC(=O)C(OC(=O)c1ccccc1)c1ccco1 (stereo not drawn)	1.0
C[C@@H]1CN([C@H](C)CO)C(=O)c2cc(NC(=O)Nc3ccc(C(F)(F)F)cc3)ccc2O[C@@H](C)CCCCO[C@H]1CN(C)C	0.6
C[C@@H]1CCCCO[C@@H](CN(C)S(=O)(=O)c2ccccc2)[C@H](C)CN([C@@H](C)CO)C(=O)c2cc(NC(=O)Nc3ccc(F)cc3)ccc2O1	-0.8
C[C@H]1CN([C@@H](C)CO)C(=O)c2cc(NC(=O)Cc3ccccc3)ccc2O[C@@H]1CN(C)Cc1ccc(Oc2ccccc2)cc1	-0.4
C[C@H](CO)N1C[C@H](C)[C@H](CN(C)Cc2ccccc2)Oc2ccc(NC(=O)Nc3cccc4ccccc34)cc2C1=O	-0.6
C[C@H]1CN([C@@H](C)CO)C(=O)Cc2cc(NC(=O)CCCCCC(=O)Nc3ccccc3N)ccc2O[C@H]1CN(C)C(=O)Nc1ccccc1	0.1
COc1ccc(S(=O)(=O)Nc2ccc3c(c2)C(=O)N([C@@H](C)CO)C[C@H](C)[C@H](CN(C)C(=O)NC(C)C)OCCCC[C@H](C)O3)cc1	0.3
COc1ccc(CN(C)C[C@H]2Oc3ccc(NS(=O)(=O)c4ccc(C)cc4)cc3CC(=O)N([C@H](C)CO)C[C@H]2C)cc1	-0.8
C[C@@H]1CCCCO[C@H](CN(C)S(=O)(=O)c2cccs2)[C@H](C)CN([C@@H](C)CO)C(=O)c2cc(NS(=O)(=O)c3cccs3)ccc2O1	0.0
COc1ccc(CN(C)C[C@@H]2Oc3ccc(NC(=O)Nc4ccc(OC)cc4)cc3CC(=O)N([C@H](C)CO)C[C@H]2C)cc1	1.3
Cc1noc(C)c1NC(=O)Nc1ccc2c(c1)C(=O)N([C@@H](C)CO)C[C@@H](C)[C@H](CN(C)CC1CCCCC1)OCCCC[C@@H](C)O2	-0.8
COc1ccc(S(=O)(=O)N(C)C[C@@H]2Oc3c(NC(=O)Nc4c(C)noc4C)cccc3C(=O)N([C@@H](C)CO)C[C@@H]2C)cc1	1.8
CNC[C@@H]1Oc2ccc(NC(=O)Nc3ccc(F)cc3)cc2C(=O)N([C@H](C)CO)C[C@@H]1C	-0.6
COc1ccc(NC(=O)Nc2ccc3c(c2)C(=O)N([C@@H](C)CO)C[C@@H](C)[C@H](CN(C)C(=O)NC2CCCCC2)O3)cc1	-1.5
C[C@H](CO)N1C[C@H](C)[C@H](CN(C)C(=O)Nc2ccccc2)OCCCC[C@H](C)Oc2ccc(N(C)C)cc2C1=O	0.0
Cc1noc(C)c1NC(=O)N(C)C[C@@H]1OCCCC[C@H](C)Oc2ccc(NS(=O)(=O)c3cccs3)cc2C(=O)N([C@@H](C)CO)C[C@@H]1C	-0.7
COc1ccc(NC(=O)Nc2ccc3c(c2)CC(=O)N([C@H](C)CO)C[C@H](C)[C@H](CN(C)C(=O)Nc2cccc4ccccc24)O3)cc1	1.3
COc1ccc(NC(=O)N(C)C[C@H]2OCCCC[C@H](C)Oc3ccc(NC(=O)Nc4ccccc4)cc3C(=O)N([C@H](C)CO)C[C@@H]2C)cc1	0.7
C[C@H](CO)N1C[C@H](C)[C@@H](CN(C)Cc2ccncc2)Oc2ccc(NS(=O)(=O)c3cccs3)cc2CC1=O	-0.6
COc1ccc(S(=O)(=O)Nc2ccc3c(c2)C(=O)N([C@H](C)CO)C[C@H](C)[C@@H](CN(C)Cc2ccccc2)O3)cc1	-1.7
CC(C)NC(=O)Nc1ccc2c(c1)C(=O)N([C@H](C)CO)C[C@@H](C)[C@H](CN(C)S(C)(=O)=O)OCCCC[C@@H](C)O2	0.5
O=C(N/N=C/c1cccnc1)c1ccccn1	-4.3
C[C@@H]1CCCCO[C@H](CN(C)C(=O)CCC(F)(F)F)[C@H](C)CN([C@@H](C)CO)C(=O)c2cc(NS(=O)(=O)c3cccs3)ccc2O1	-1.1
C[C@@H]1CN([C@@H](C)CO)C(=O)c2cc(NC(=O)CCC(F)(F)F)ccc2O[C@H]1CN(C)Cc1ccc(-c2ccccc2)cc1	0.1

Given with each value named: entries from further up.
C[C@@H]1CN([C@H](C)CO)C(=O)c2cc(NC(=O)Nc3ccc(F)cc3)ccc2O[C@@H](C)CCCCO[C@@H]1CN(C)C(=O)c1ccccc1
  A1 apoptosis 2 = 0.6
CCCCNC(=O)C(OC(=O)c1ccccc1)c1ccco1 (stereo not drawn)
  A1 apoptosis 2 = 1.0

The listing continues:
SMILES	A1 apoptosis 2
C[C@H](CO)N1C[C@H](C)[C@H](CN(C)C(=O)NC2CCCCC2)Oc2ccc(NC(=O)Nc3ccc4c(c3)OCO4)cc2C1=O	-1.4
C[C@@H]1CN([C@H](C)CO)C(=O)CCCn2nncc2CO[C@H]1CN(C)C(=O)Nc1ccc(C(C)(C)C)cc1	-0.6
C[C@@H]1CN([C@H](C)CO)C(=O)c2cc(NC(=O)Nc3ccccc3)ccc2O[C@@H](C)CCCCO[C@H]1CN(C)S(=O)(=O)c1ccccc1	0.5
CC(C)NC(=O)N(C)C[C@H]1Oc2ccc(NC(=O)Cc3cn(C)c4ccccc34)cc2CC(=O)N([C@H](C)CO)C[C@H]1C	0.2
COc1ccc(NC(=O)Nc2ccc3c(c2)C(=O)N([C@H](C)CO)C[C@H](C)[C@@H](CN(C)S(=O)(=O)c2cn(C)cn2)O3)cc1	0.1
CNC[C@@H]1Oc2ccc(NC(=O)C3CCCCC3)cc2CC(=O)N([C@@H](C)CO)C[C@H]1C	-2.0
C[C@@H]1CN([C@@H](C)CO)C(=O)CCCn2nncc2CO[C@H]1CN(C)C(=O)CCCN(C)C	-0.1
C[C@@H]1CN([C@H](C)CO)C(=O)c2cc(NC(=O)Nc3cccc4ccccc34)ccc2O[C@H]1CN(C)Cc1ccc(C(F)(F)F)cc1	1.0
Cc1ccc(S(=O)(=O)N(C)C[C@H]2Oc3c(NC(=O)c4ccc(-c5nccs5)cc4)cccc3C(=O)N([C@@H](C)CO)C[C@@H]2C)cc1	-0.7
C[C@@H]1CN([C@@H](C)CO)C(=O)c2cccc(NC(=O)c3nc4ccccc4s3)c2O[C@H]1CN(C)CC1CCCCC1	-0.9
Cc1ccc(S(=O)(=O)Nc2ccc3c(c2)C(=O)N([C@@H](C)CO)C[C@@H](C)[C@H](CN(C)C(=O)Nc2ccc(F)cc2)O3)cc1	1.3
C[C@@H]1CN([C@@H](C)CO)C(=O)Cc2cc(NC(=O)C3CCCCC3)ccc2O[C@@H]1CN(C)CC1CCCCC1	0.9
C[C@@H]1CN([C@@H](C)CO)C(=O)c2cc(N(C)C)ccc2O[C@H]1CN(C)C(=O)Nc1cccc2ccccc12	0.2
Cc1noc(C)c1NC(=O)N(C)C[C@@H]1Oc2ccc(NC(=O)NC(C)C)cc2CC(=O)N([C@H](C)CO)C[C@@H]1C	-0.1
CC(C)NC(=O)N(C)C[C@H]1Oc2ccc(NS(=O)(=O)c3cn(C)cn3)cc2CC(=O)N([C@H](C)CO)C[C@@H]1C	-0.4
C[C@@H]1CCCCO[C@H](CN(C)C(=O)CCCN(C)C)[C@@H](C)CN([C@H](C)CO)C(=O)c2cc(NC(=O)c3ccncc3)ccc2O1	-0.7
C[C@H]1CN([C@@H](C)CO)C(=O)c2cccc(NS(=O)(=O)c3cn(C)cn3)c2O[C@@H]1CN(C)C(=O)Nc1ccc(F)cc1	-0.4
CC(C)NC(=O)Nc1ccc2c(c1)C(=O)N([C@@H](C)CO)C[C@@H](C)[C@H](CN(C)C(=O)c1ccccc1)OCCCC[C@H](C)O2	0.3
COc1ccc(S(=O)(=O)N(C)C[C@@H]2OCCCC[C@@H](C)Oc3ccc(NS(=O)(=O)c4c(C)noc4C)cc3C(=O)N([C@H](C)CO)C[C@@H]2C)cc1	-1.2
COc1ccc(NC(=O)N(C)C[C@@H]2Oc3ncc(C#Cc4cccc(F)c4)cc3C(=O)N([C@H](C)CO)C[C@@H]2C)cc1	3.4
CC1(C)COC(CCC/C=N/NC(=O)c2ccc(C(=O)NO)cc2)OC1	-0.1
Cc1noc(C)c1NC(=O)N(C)C[C@@H]1Oc2ccc(NC(=O)CCCN(C)C)cc2C(=O)N([C@@H](C)CO)C[C@H]1C	-0.3
C[C@H](CO)N1C[C@H](C)[C@@H](CN(C)Cc2ccccc2)Oc2ccc(NC(=O)C3CCCCC3)cc2CC1=O	-0.6
C[C@@H]1CN([C@H](C)CO)C(=O)c2cc(NC(=O)Cc3ccccc3)ccc2O[C@@H](C)CCCCO[C@H]1CN(C)C(=O)Nc1ccccc1	-0.1
C[C@@H]1CN([C@H](C)CO)C(=O)c2cccc(NC(=O)CCCCCC(=O)Nc3ccccc3N)c2O[C@@H]1CN(C)Cc1ccc(C(F)(F)F)cc1	-0.1

Of the compounds above, these have a thiophene ring, fused or not.
SMILES	A1 apoptosis 2
C[C@@H]1CCCCO[C@H](CN(C)S(=O)(=O)c2cccs2)[C@H](C)CN([C@@H](C)CO)C(=O)c2cc(NS(=O)(=O)c3cccs3)ccc2O1	0.0
Cc1noc(C)c1NC(=O)N(C)C[C@@H]1OCCCC[C@H](C)Oc2ccc(NS(=O)(=O)c3cccs3)cc2C(=O)N([C@@H](C)CO)C[C@@H]1C	-0.7
C[C@H](CO)N1C[C@H](C)[C@@H](CN(C)Cc2ccncc2)Oc2ccc(NS(=O)(=O)c3cccs3)cc2CC1=O	-0.6
C[C@@H]1CCCCO[C@H](CN(C)C(=O)CCC(F)(F)F)[C@H](C)CN([C@@H](C)CO)C(=O)c2cc(NS(=O)(=O)c3cccs3)ccc2O1	-1.1

(next part)
SMILES	A1 apoptosis 2
Cc1noc(C)c1NC(=O)N(C)C[C@@H]1Oc2c(NC(=O)C3CC3)cccc2C(=O)N([C@H](C)CO)C[C@H]1C	1.0
CNC[C@H]1Oc2ccc(NS(=O)(=O)c3ccc(OC)cc3)cc2C(=O)N([C@@H](C)CO)C[C@H]1C	0.4
C[C@H]1CN([C@@H](C)CO)C(=O)c2cccc(NC(=O)Nc3ccc(F)cc3)c2O[C@@H]1CN(C)Cc1ccc(Cl)c(Cl)c1	-1.4
C[C@@H]1CCCCO[C@@H](CN(C)CC2CCCCC2)[C@H](C)CN([C@@H](C)CO)C(=O)c2cc(NS(=O)(=O)c3cccs3)ccc2O1	1.4
C[C@@H]1CN([C@@H](C)CO)C(=O)Cc2cc(NC(=O)NC3CCCCC3)ccc2O[C@H]1CN(C)S(=O)(=O)c1cccs1	-0.5
C[C@@H]1CN([C@@H](C)CO)C(=O)c2cc(NC(=O)Cc3ccccc3)ccc2O[C@H]1CN(C)Cc1ccc(C(=O)O)cc1	-0.1
CNC[C@H]1Oc2ccc(NS(=O)(=O)c3cccs3)cc2C(=O)N([C@@H](C)CO)C[C@@H]1C	-0.4
O=C(NO)c1ccc(C(=O)N/N=C/Cc2ccccc2)cc1	0.8
CC(C)NC(=O)N(C)C[C@H]1Oc2ccc(NS(=O)(=O)c3cccs3)cc2C(=O)N([C@H](C)CO)C[C@H]1C	1.3
C[C@H](CO)N1C[C@H](C)[C@@H](CN(C)Cc2ccc(C(=O)Nc3ccccc3N)cc2)Oc2ccc(NC(=O)C3CCCCC3)cc2CC1=O	-1.3
Cc1noc(C)c1S(=O)(=O)Nc1ccc2c(c1)CC(=O)N([C@H](C)CO)C[C@H](C)[C@@H](CN(C)Cc1ccc(-c3ccccc3)cc1)O2	-0.2
C[C@@H]1CN([C@@H](C)CO)C(=O)c2cccc(N(C)C)c2O[C@@H]1CN(C)C(=O)Nc1ccc(F)cc1	-0.2
COCCOC(=O)N1C(=O)[C@@]2(c3cc(C#CC4(O)CCCCCC4)ccc31)[C@H](c1ccccc1OCCO)N1[C@H](c3ccccc3)[C@H](c3ccccc3)OC(=O)[C@H]1[C@@H]2C(=O)N1CCc2cc(OC)c(OC)cc2C1	0.8
C[C@@H]1CN([C@H](C)CO)C(=O)c2cccc(NC(=O)Nc3ccc(C(F)(F)F)cc3)c2O[C@H]1CN(C)Cc1ccc2c(c1)OCO2	-0.9
COc1ccc(CN(C)C[C@H]2OCCCC[C@@H](C)Oc3ccc(NC(=O)Nc4ccccc4)cc3C(=O)N([C@H](C)CO)C[C@H]2C)cc1	-1.4
C[C@@H]1CN([C@@H](C)CO)C(=O)c2cc(NS(=O)(=O)c3cccs3)ccc2O[C@H]1CN(C)S(C)(=O)=O	-0.3
COc1ccc(S(=O)(=O)N(C)C[C@H]2Oc3c(NC(=O)C4CCCCC4)cccc3C(=O)N([C@H](C)CO)C[C@H]2C)cc1	0.7
C[C@@H]1CCCCO[C@@H](CN(C)C(=O)CCC(F)(F)F)[C@@H](C)CN([C@H](C)CO)C(=O)c2cc(NS(C)(=O)=O)ccc2O1	-0.9
C[C@H](CO)N1C[C@H](C)[C@H](CN(C)S(=O)(=O)c2ccc(F)cc2)OCCCC[C@H](C)Oc2ccc(NC(=O)c3ccccc3)cc2C1=O	-1.1
CC(C)NC(=O)N(C)C[C@H]1Oc2ccc(NS(C)(=O)=O)cc2CC(=O)N([C@@H](C)CO)C[C@@H]1C	0.7
COc1ccc(NC(=O)N(C)C[C@@H]2OCCCC[C@@H](C)Oc3ccc(NS(=O)(=O)c4ccc(OC)cc4)cc3C(=O)N([C@@H](C)CO)C[C@H]2C)cc1	-0.2
